CSC inhib = cancer stem cell viability inhibitors, primary screen, luminescence. 300,000 tested, 1.1% active. cancer stem cell-like cells viability. inhibition, % at 7.5 µM. AID 2717, 2010;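 active means mean at 75% or more and at least half the replicates too; inconclusive means mean and replicates disagree; tested in HMLE shEcad cells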;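 further: 0% = median of negative and 100% = median of positive control wells; the first replicate is given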
Rce1 inh = yeast Rce1p protease inhibitors, primary screen, biochemical, fluorescence, cell-free homogeneous; CAAX prenyl protease 2 (Saccharomyces cerevisiae (strain ATCC 204508 / S288c)), Q03530; yeast membranes, quenched prenylated peptide cleavage fluorescence; calls only; 290,000 tested, 0.27% active;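 active means fall in fluorescence gain of 50% or more versus controls, with final raw signal at or below 3038400; inconclusive means same 50% fall but final raw signal above 3038400; inactive means fall in fluorescence gain under 50%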;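 further: plate controls were neutral control wells for no effect and wells lacking membranes for full effect; tested at 10 µM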
Target sequence (Q03530 whole entry, looked up): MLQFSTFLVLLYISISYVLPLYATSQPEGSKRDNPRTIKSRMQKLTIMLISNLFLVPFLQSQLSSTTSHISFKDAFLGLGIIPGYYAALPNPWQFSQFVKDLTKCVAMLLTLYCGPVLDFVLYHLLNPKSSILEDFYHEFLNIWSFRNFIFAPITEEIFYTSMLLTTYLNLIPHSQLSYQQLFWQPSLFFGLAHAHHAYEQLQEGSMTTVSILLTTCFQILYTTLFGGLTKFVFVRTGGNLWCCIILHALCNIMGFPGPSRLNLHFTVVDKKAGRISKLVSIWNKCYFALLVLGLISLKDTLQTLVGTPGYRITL
Env fusion inh = inhibitors of HIV-1 Env-driven cell-cell fusion, primary screen, HeLa-JRFL effector, CEM21 target cells, luciferase | 360,000 tested, 1.1% active | AID 651610, 2012 | inhibition, % at 12.3 µM;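 active means mean replicate inhibition score of at least 50 and every replicate individually at or above 50; inconclusive means only one of the two criteria met; inactive means mean below 50 and not all replicates reaching 50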;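 further: 0% = plate neutral controls and 100% = maraviroc near 300 nM; one replicate is shown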
eIF4H inh = human eIF4H binding inhibitors, primary screen, translation initiation inhibitor project, biochemical, uHTS, fluorescence polarization; Eukaryotic translation initiation factor 4H (Homo sapiens), Q15056; eIF4H fluorescence polarization binding assay; inhibition, % at 35 µM; 290,000 tested, 0.94% active; AID 2012, 2009;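 active means 50% or more with normal probe brightness, or confirmed in later tests; inconclusive means above 50% with abnormal brightness, or retests that disagree; inactive means below 50% or failed in later tests; about a fifth of its hits are not listed in these tables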;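 further: calls also rest on retests at 20 µM and on dose response follow-up; 0% = protein and probe with vehicle and 100% = probe without protein; strong numbers were not always called active; many hits fall short of the cut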
PABP FP inh = PABP poly(A) RNA binding inhibitors, primary screen, biochemical, fluorescence polarization, uHTS; 290,000 tested, 1% active; Polyadenylate-binding protein 1 (Homo sapiens), P11940; inhibition, % at 35 µM;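 active means 50% or more with normal probe brightness, or confirmed in later tests; inconclusive means above 50% with abnormal brightness, or retests that disagree; inactive means below 50% or failed in later tests; about a fifth of its hits are not listed in these tables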;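 further: calls also rest on retests at 20 µM and on dose response follow-up; controls were probe without protein and protein plus probe with vehicle; some compounds called inactive have numbers as strong as hits; many hits fall short of the cut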
Target sequence (P11940 whole entry, looked up): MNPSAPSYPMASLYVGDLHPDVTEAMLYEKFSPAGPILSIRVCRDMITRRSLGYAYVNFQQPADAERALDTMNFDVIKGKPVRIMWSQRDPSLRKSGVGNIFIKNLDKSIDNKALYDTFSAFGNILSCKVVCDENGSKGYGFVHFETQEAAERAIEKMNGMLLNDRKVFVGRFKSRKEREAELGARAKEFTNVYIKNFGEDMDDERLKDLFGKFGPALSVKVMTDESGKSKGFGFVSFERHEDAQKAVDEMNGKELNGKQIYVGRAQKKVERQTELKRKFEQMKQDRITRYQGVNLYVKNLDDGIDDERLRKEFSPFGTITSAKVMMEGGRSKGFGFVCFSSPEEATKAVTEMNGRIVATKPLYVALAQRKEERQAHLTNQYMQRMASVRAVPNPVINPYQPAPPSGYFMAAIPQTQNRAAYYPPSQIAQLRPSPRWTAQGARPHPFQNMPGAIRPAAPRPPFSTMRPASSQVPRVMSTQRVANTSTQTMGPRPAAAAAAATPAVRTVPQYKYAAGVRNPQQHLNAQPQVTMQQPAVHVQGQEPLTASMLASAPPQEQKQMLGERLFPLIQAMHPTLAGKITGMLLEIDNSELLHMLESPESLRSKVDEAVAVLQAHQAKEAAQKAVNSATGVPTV
MT1-MMP act inh = blockers of MT1-MMP proenzyme processing, primary screen, HT1080 RFP-PRO-GFP cells, GFP/RFP fluorescence. GFP/RFP ratio fluorescence, overnight; percent of plate control window, DMSO zero. GFP/RFP ratio change, % at 20 µM. 360,000 tested, 0.061% active. AID 651647, 2012;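 active means GFP/RFP ratio change of at least 30% with cell ATP level not reduced by more than half and red fluorescence within 50% of control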; further: strong numbers were not always called active
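Read-out: GFP/RFP fluorescence ratio; Test system: RFP-PRO-GFP reporter HT1080 cells; Compound dosing: single-point 20 µM compound, 1% DMSO; Times: overnight compound exposure at 37 °C.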
Yeast UUG start = modulators of yeast start codon fidelity, primary screen, whole organism, S. cerevisiae, single point, plate reader | S. cerevisiae UUG-firefly luciferase reporter, luminescence/redox ratio | activity score, % at 18.7 µM | 350,000 tested, 0.13% active | AID 602363, 2012;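 active means replicate mean at a twofold rise or more, about +100% in these data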;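 further: firefly luciferase made from a UUG start codon reports start codon fidelity; reporter light over untreated wells divided by growth signal over untreated wells; some hits fall short of that in this replicate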
eIF4H inh retest = recorded beside eIF4H inh, whose call it bears; inhibition, %; compound at 20 µM; confirmation average;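 mean of two retest wells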
PABP FP inh retest = further read-out of PABP FP inh, marked with its call; inhibition, %; compound at 20 µM; confirmation repeats;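 mean of two retest wells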
MT1-MMP act inh RFP = also measured in MT1-MMP act inh; calls as there; RFP signal change, %; measured here: RFP expression control read;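 0 = vehicle wells; hits needed this value within 50% of zero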
* hit, by the source's call. This is a subset. The share of hits here may be higher or lower than overall.

For COc1cc2c(C(=O)NCCCOC(C)C)cn(CC(C)C)c(=O)c2cc1OC the results were CSC inhib 4, Rce1 inh inactive, Env fusion inh -24, eIF4H inh 2, PABP FP inh 8, MT1-MMP act inh -3, Yeast UUG start 17 and MT1-MMP act inh RFP -2.
`O=C(/C=C/c1ccccc1)C1=C(O)C(=O)N(CCO)C1c1ccccc1[N+](=O)[O-]` (stereo unspecified) gave CSC inhib -6, Rce1 inh inactive, Env fusion inh -3, eIF4H inh -5, PABP FP inh 4, MT1-MMP act inh -4 and MT1-MMP act inh RFP 8.
For COC(=O)C1SCC2C(=O)N(Cc3cccc(C)c3)CC(=O)N21 (stereo unspecified) the results were CSC inhib -4, Rce1 inh inactive, Env fusion inh -5, eIF4H inh -6, PABP FP inh 4, MT1-MMP act inh -1, Yeast UUG start -5 and MT1-MMP act inh RFP 5.
`O=C(NCc1ccccc1)C(=O)Nc1nc(C23CC4CC(CC(C4)C2)C3)cs1` gave CSC inhib 30, Rce1 inh inactive, Env fusion inh 16, eIF4H inh 1, PABP FP inh -2, MT1-MMP act inh 8, Yeast UUG start -17 and MT1-MMP act inh RFP -7.
Screening OC(c1ccccc1)c1ncc(-c2ccccc2F)[nH]1 (stereo unspecified) returned Env fusion inh -90, MT1-MMP act inh 3, Yeast UUG start -23 and MT1-MMP act inh RFP 3.
`CCCCN(CC)CCCNC(=O)CN1C(=O)CSc2ccc(S(=O)(=O)N3CCOCC3)cc21` gave CSC inhib 3, Rce1 inh inactive, Env fusion inh -6, eIF4H inh -3, PABP FP inh -9, MT1-MMP act inh 2 and MT1-MMP act inh RFP 2.
For COc1ccc(NC(=S)N2CCN(CCN3C(=O)c4cccc5cccc(c45)C3=O)CC2)cc1 the results were CSC inhib -12, Rce1 inh inactive, Env fusion inh -13, eIF4H inh 3, PABP FP inh 0, MT1-MMP act inh -4, Yeast UUG start -10 and MT1-MMP act inh RFP -4.
COc1cc2c(cc1OC)C(c1cccc([N+](=O)[O-])c1)N(C(=O)CCC(=O)O)CC2 (stereo unspecified) was read as CSC inhib -1, Rce1 inh inactive, Env fusion inh -11, eIF4H inh -2, PABP FP inh 7, MT1-MMP act inh 1, Yeast UUG start 1 and MT1-MMP act inh RFP 1.
Screening COc1cccc(C=Nc2ccc3c(c2)OCCO3)c1O returned CSC inhib -4, Rce1 inh inactive, eIF4H inh -9, PABP FP inh -7, MT1-MMP act inh 6, Yeast UUG start -82 and MT1-MMP act inh RFP -4.
`COc1cccc(-n2cc(C(=O)NC(C)C)c3ccccc3c2=O)c1` gave Rce1 inh inactive, Env fusion inh 10, eIF4H inh 4, PABP FP inh 3, MT1-MMP act inh -3, Yeast UUG start -8 and MT1-MMP act inh RFP -1.
For CC(=O)Nc1ccc(S(=O)(=O)NCCC(=O)NCC2COc3ccccc3O2)cc1 (stereo unspecified) the results were CSC inhib -3, Rce1 inh inactive, eIF4H inh -19, PABP FP inh 1, MT1-MMP act inh -2, Yeast UUG start -11 and MT1-MMP act inh RFP 1.
For CCOC(=O)CNc1ccc(C(=O)OCC)cc1[N+](=O)[O-] the results were CSC inhib 0, Rce1 inh inactive, Env fusion inh -78, eIF4H inh -3, PABP FP inh -6, MT1-MMP act inh 2 and MT1-MMP act inh RFP 3.
`O=C(CSc1nc(-c2ccccc2)nc2ccc(F)cc12)Nc1ccc(C(=O)O)cc1` gave CSC inhib -5, Rce1 inh inactive, Env fusion inh 2, eIF4H inh 3, PABP FP inh 10, MT1-MMP act inh -1 and MT1-MMP act inh RFP 3.
O=C1NC(=O)C(CC(=O)N(Cc2ccco2)C2(C(=O)NC3CCCC3)CCCCC2)N1 (stereo unspecified) was read as CSC inhib -2, Rce1 inh inactive, eIF4H inh -3, PABP FP inh -3, MT1-MMP act inh 5, Yeast UUG start 2 and MT1-MMP act inh RFP 11.
`O=[N+]([O-])c1c(NCCCO)cc(N2CCN(Cc3ccc4c(c3)OCO4)CC2)c2nonc12` gave CSC inhib 5, Rce1 inh inactive, Env fusion inh 18, eIF4H inh -7, PABP FP inh -7, MT1-MMP act inh 1, Yeast UUG start -4 and MT1-MMP act inh RFP -12.
For O=C(Nc1ccc(F)cc1F)Nc1sccc1-c1nc2ccccc2s1 the results were CSC inhib 32, Rce1 inh inactive, Env fusion inh -6, eIF4H inh 10, PABP FP inh -6, MT1-MMP act inh -5 and MT1-MMP act inh RFP -5.
For O=C1CC(c2cc([N+](=O)[O-])ccc2Cl)c2c(ccc3ccccc23)N1 (stereo unspecified) the results were CSC inhib -1, Rce1 inh inactive, Env fusion inh -78, eIF4H inh 4, PABP FP inh -29, MT1-MMP act inh -12, Yeast UUG start -28 and MT1-MMP act inh RFP -21.
CC/C(=N/NS(=O)(=O)c1ccc(Cl)cc1)c1ccc(O)cc1 was read as CSC inhib -31, Rce1 inh inactive, Env fusion inh 0, eIF4H inh -8, PABP FP inh -10, MT1-MMP act inh 4 and MT1-MMP act inh RFP 10.
Screening CCC(C)[C@H](NC(=O)NCc1cccnc1)C(=O)OC (stereo partly specified) returned CSC inhib -10, Rce1 inh inactive, Env fusion inh 8, eIF4H inh -3, PABP FP inh -7, MT1-MMP act inh -3 and MT1-MMP act inh RFP 1.
Screening CCN(CC)S(=O)(=O)c1ccc(N2CCCCC2)c(NC(=O)C2CSC3(C)CCC(=O)N23)c1 (stereo unspecified) returned Env fusion inh inconclusive, MT1-MMP act inh -4, Yeast UUG start -7 and MT1-MMP act inh RFP -4.
Screening Cc1ccc(S(=O)(=O)N(C)c2ccccc2C(=O)N2CCCC2)cc1 returned CSC inhib 13, Rce1 inh inactive, Env fusion inh 11, eIF4H inh -20, PABP FP inh 0, MT1-MMP act inh -1, Yeast UUG start -21 and MT1-MMP act inh RFP 1.
CCOc1ccc(S(=O)(=O)n2nc(C)c(S(=O)(=O)N3CCOCC3)c2C)cc1 was read as CSC inhib -3, Rce1 inh inactive, Env fusion inh 0, eIF4H inh -11, PABP FP inh -3, MT1-MMP act inh -1, Yeast UUG start 13 and MT1-MMP act inh RFP 2.
For CCN(C(=O)c1cc2c(=O)n3cccc(C)c3nc2s1)C1CCCCC1 the results were CSC inhib 14, Rce1 inh inactive, Env fusion inh -4, eIF4H inh -6, PABP FP inh 0, MT1-MMP act inh -3, Yeast UUG start 9 and MT1-MMP act inh RFP -3.
`NC(=O)CCC(C(=O)O)N1C(=O)c2ccc(O)cc2C1=O` (stereo unspecified) gave CSC inhib -3, Rce1 inh inactive, Env fusion inh 8, eIF4H inh 6, PABP FP inh 16, MT1-MMP act inh 1, Yeast UUG start -16 and MT1-MMP act inh RFP 3.
Screening COC(=O)c1ccc(OCC2NCCc3cc(OC)c(OC)cc32)cc1 (stereo unspecified) returned CSC inhib -15, Rce1 inh inactive, eIF4H inh -4, PABP FP inh 2, MT1-MMP act inh -13, Yeast UUG start -18 and MT1-MMP act inh RFP -1.
O=C(CNC(=O)C1CC1)Nc1ccc(F)c(F)c1F was read as CSC inhib -8, Env fusion inh 12, MT1-MMP act inh -5, Yeast UUG start -15 and MT1-MMP act inh RFP -2.
Cc1ccc(-c2c(C#N)c(N)nc3c2CCCCC3)o1 was read as CSC inhib -13, Rce1 inh inactive, Env fusion inh inconclusive, eIF4H inh 63*, PABP FP inh 85*, MT1-MMP act inh -7, Yeast UUG start -15 and MT1-MMP act inh RFP 0.
For CCc1nonc1NC(=O)c1oc2ccc(C)cc2c1C the results were CSC inhib 5, Rce1 inh inactive, Env fusion inh -39, MT1-MMP act inh 1, Yeast UUG start -17 and MT1-MMP act inh RFP -2.
For CC(C)Nc1nc(-c2ccccc2F)c2sc(-c3ccccc3)cc2n1 the results were Env fusion inh -1, MT1-MMP act inh -7, Yeast UUG start -41 and MT1-MMP act inh RFP -7.
`O=C(Nc1ccccc1)Nc1cccc(-c2cn3cccnc3n2)c1` gave CSC inhib -4, Rce1 inh inactive, Env fusion inh -11, eIF4H inh -4, PABP FP inh -6, MT1-MMP act inh 9, Yeast UUG start -22 and MT1-MMP act inh RFP -3.
`O=C(CC1(O)C(=O)Nc2ccccc21)c1cccc(Br)c1` (stereo unspecified) gave CSC inhib 0, Rce1 inh inactive, Env fusion inh -33, eIF4H inh 1, PABP FP inh 5, MT1-MMP act inh 2 and MT1-MMP act inh RFP 8.
`CN(Cc1ccccc1)CC1C2CCC(C2)C1O` (stereo unspecified) gave Env fusion inh -4, MT1-MMP act inh 1, Yeast UUG start -17 and MT1-MMP act inh RFP 3.
For COCCOC(=O)CC1=NC(=O)CS1 the results were CSC inhib 9, Rce1 inh inactive, eIF4H inh -6, PABP FP inh 4, MT1-MMP act inh 0, Yeast UUG start -5 and MT1-MMP act inh RFP 5.
For O=C(COc1ccccc1C(=O)N/N=C\c1ccc(O)c(O)c1)N/N=C/c1ccc(O)c(O)c1 the results were CSC inhib -2, Rce1 inh inactive, eIF4H inh 74*, PABP FP inh 42*, MT1-MMP act inh -3, Yeast UUG start -12, eIF4H inh retest 98*, PABP FP inh retest 60* and MT1-MMP act inh RFP -2.
CN(C)CCNC(=O)c1cccc(-c2cccc3nccn23)c1 was read as Env fusion inh 3, MT1-MMP act inh 1, Yeast UUG start 10 and MT1-MMP act inh RFP 2.
`CC(C)(C)c1cc(NC(=O)COC(=O)c2ccccc2)n(-c2ccccc2)n1` gave Env fusion inh 6, MT1-MMP act inh 3, Yeast UUG start -18 and MT1-MMP act inh RFP 9.
For COc1cccc(CC(=O)Nc2nc(-c3cccnc3)cs2)c1 the results were CSC inhib -9, Rce1 inh inactive, Env fusion inh 25, eIF4H inh 55, PABP FP inh 15, MT1-MMP act inh -5, eIF4H inh retest 12, PABP FP inh retest 4 and MT1-MMP act inh RFP -2.
For C/C(=N\NC(=O)COc1ccccc1-c1ccccc1)c1ccc(O)cc1O the results were CSC inhib 37, Rce1 inh inactive, Env fusion inh 12, eIF4H inh -8, PABP FP inh 4, MT1-MMP act inh -7 and MT1-MMP act inh RFP -6.
`CCC(C)(C)n1nnnc1C(c1cccs1)N1CCN(c2nc3ccccc3s2)CC1` (stereo unspecified) gave CSC inhib 12, Rce1 inh inactive, eIF4H inh -2, PABP FP inh 6, MT1-MMP act inh -3, Yeast UUG start -23 and MT1-MMP act inh RFP -25.
`COc1ccc(-c2ccc(C#N)c(SCC(=O)OCc3ccccc3)n2)cc1OC` gave CSC inhib 0, Rce1 inh inactive, eIF4H inh 5, PABP FP inh 1, MT1-MMP act inh 10, Yeast UUG start -12 and MT1-MMP act inh RFP 2.
For CC(C)CC(c1nnnn1Cc1ccco1)N1CCN(C2CCCC2)CC1 (stereo unspecified) the results were CSC inhib -9, Rce1 inh inactive, eIF4H inh -12, PABP FP inh 80, MT1-MMP act inh 6, Yeast UUG start 3, eIF4H inh retest -10, PABP FP inh retest 6 and MT1-MMP act inh RFP 5.

High-throughput results from PubChem.
